Vif TR-FRET – inhibitors of Vif binding to APOBEC3G peptide, primary screen, biochemical, TR-FRET, GST-Vif 1-94, biotin-A3G peptide, dose response retest (AID 1117319); 260,000 compounds, 0.57% hits; inhibition, %, or IC50 in µM where a hit was titrated; TR-FRET GST-Vif / biotin-A3G peptide binding; higher % means a stronger effect; test concentration not given here; strong numbers were not always called active;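 active means above the screen mean plus three standard deviations and confirmed in dose response; inconclusive means results disagree or hit not tested in dose response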;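 further: Vif residues 1-94 fused to GST binding biotinylated APOBEC3G peptide 110-148; 0% = full assay without inhibitor and 100% = GST in place of GST-Vif; retest series ran down from 100 µM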
FGF22 binding – binders of human FGF22 protein, primary screen, FGF22 synaptogenesis inhibitor project, biophysical, thermal shift, single point. Fibroblast growth factor 22 (Homo sapiens), Q9HCT0. 340,000 compounds, 1.5% hits. calls only at 9.99 µM. recombinant FGF22 thermal shift, SYPRO orange fluorescence; percent of sucrose octasulfate shift, DMSO zero;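 active means melting point raised past a set limit in the mean and every replicate; inconclusive means no clear call; three in four hits are not shown here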
Target sequence (Q9HCT0 whole entry, looked up): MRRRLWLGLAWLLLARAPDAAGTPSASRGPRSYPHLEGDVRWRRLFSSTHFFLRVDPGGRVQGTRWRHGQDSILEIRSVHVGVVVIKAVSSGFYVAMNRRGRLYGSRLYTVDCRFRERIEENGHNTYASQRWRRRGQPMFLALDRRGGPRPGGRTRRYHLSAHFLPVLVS
UCH37 DUB inh – inhibitors of human UCH37 deubiquitinase, primary screen, biochemical, Ub-AMC cleavage, fluorescence; inhibition, % (no concentration beside the values); AID 588478, 2011; 330,000 compounds, 0.33% hits; Ubiquitin carboxyl-terminal hydrolase isozyme L5 (Homo sapiens), Q9Y5K5; purified proteasome/UCH37;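 active means mean of two replicates above 20%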;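 further: 0% = compound-free wells with enzyme and 100% = wells lacking proteasome; stock transfer was 100 nL into about 20 µL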
Target sequence (Q9Y5K5 whole entry, looked up): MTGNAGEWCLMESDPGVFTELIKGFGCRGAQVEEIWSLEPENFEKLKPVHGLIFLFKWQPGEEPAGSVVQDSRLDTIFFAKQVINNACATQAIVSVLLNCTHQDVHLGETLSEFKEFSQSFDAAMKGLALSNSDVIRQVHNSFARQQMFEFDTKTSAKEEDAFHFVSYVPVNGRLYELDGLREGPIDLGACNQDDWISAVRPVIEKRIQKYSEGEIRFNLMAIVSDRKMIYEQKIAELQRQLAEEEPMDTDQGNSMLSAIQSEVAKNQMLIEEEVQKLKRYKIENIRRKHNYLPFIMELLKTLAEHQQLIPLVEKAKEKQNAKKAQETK
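Assay system: Proteasome-bound UCH37. Buffer or medium: pH 7.4 Tris-HCl (50 mM) with ovalbumin, ATP-MgCl2, DTT. Incubation: 30 min preincubation with enzyme, 25 min cleavage at room temperature. Measured by: fluorescence, ex 355 nm, em 460 nm. Read-out basis: percent inhibition. Control set: wells without proteasome as full block, compound-free enzyme plus substrate as uninhibited.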
Ecoli growth – E. coli growth inhibition, primary screen, OD600; OD600 absorbance (no concentration beside the values); AID 1053175, 2014; 330,000 compounds, 0.21% hits; Escherichia coli growth, 23 h; active compounds read low;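 active means OD600 absorbance below the run mean of sample wells minus 3.6 SD, in any replicate, cut at about 0.56 in these data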;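 further: stock transfer was 300 nL into about 60 µL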
AF4-AF9 inh – inhibitors of AF4 peptide binding to AF9, primary screen, biochemical, AlphaScreen, biotin-AF4 peptide, FLAG-AF9, single point | Protein AF-9 (Homo sapiens), P42568 | inhibition, % at 10 µM | 350,000 compounds, 0.47% hits | AID 651704, 2012;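 active means every replicate reaching a set inhibition limit, whatever the replicate mean, cut at about 25% in these data; inconclusive means mean inhibition reaches that limit but some replicates miss it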;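 further: 0% = plate neutral control median and 100% = total signal loss; the record names both 10 and 1 µM as test concentration; the first replicate is given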
Target sequence (P42568 whole entry, looked up): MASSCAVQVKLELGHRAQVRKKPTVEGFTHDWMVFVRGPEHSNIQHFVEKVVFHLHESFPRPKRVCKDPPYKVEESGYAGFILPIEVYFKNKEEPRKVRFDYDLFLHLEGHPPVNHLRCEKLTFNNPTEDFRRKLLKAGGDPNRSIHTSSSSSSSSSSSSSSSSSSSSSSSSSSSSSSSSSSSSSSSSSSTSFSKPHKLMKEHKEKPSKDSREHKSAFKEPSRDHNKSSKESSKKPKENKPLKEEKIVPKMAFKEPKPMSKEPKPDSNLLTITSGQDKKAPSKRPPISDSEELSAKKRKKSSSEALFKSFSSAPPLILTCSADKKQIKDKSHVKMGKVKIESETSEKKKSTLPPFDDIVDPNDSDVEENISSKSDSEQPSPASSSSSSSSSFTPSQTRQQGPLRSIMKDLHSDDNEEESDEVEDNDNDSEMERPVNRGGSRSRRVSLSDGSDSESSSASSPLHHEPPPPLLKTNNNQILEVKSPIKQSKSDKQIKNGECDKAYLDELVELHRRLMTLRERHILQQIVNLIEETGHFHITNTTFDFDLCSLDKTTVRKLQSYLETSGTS
HNF4A DNA FP – change in binding of human HNF4A to DNA, primary screen, biochemical, fluorescence polarization, FITC-DNA. 360,000 compounds, 0.3% hits. activity change, % at 10 µM. 1 h. AID 1224865, 2016; in the data active means activity change above about 30%, passing the limit was not always enough;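 further: controls were the assay level and a saturating level of protein; the project sought stronger binding though the title names inhibitors; some compounds called inactive have numbers as strong as hits; positive values seem to mean higher polarization but the record does not say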
RanGTP-Imp inh – inhibitors of RanGTP-importin-beta interaction, primary screen, biochemical, FRET, CFP-Ran, YFP-importin-beta, homogeneous; Ran GTPase (GTP-bound) - importin-beta complex; cell-free CFP-Ran/YFP-importin-beta FRET ratio; inhibition, % (concentration not given with the values); 300,000 compounds, 1.1% hits; AID 2216, 2009;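 active means most replicates above 15%; inconclusive means exactly half above 15%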;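 further: 0% = DMSO wells and 100% = Ran loaded with GDP instead of GTP; wells of about 40 µL received 100 nL stock; the first replicate is given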
Active calls of the source: *; i = inactive; ? = inconclusive; . = not tested or not shown; & = joins results of further samples.

SMILES	Vif TR-FRET	FGF22 binding	UCH37 DUB inh	Ecoli growth	AF4-AF9 inh	HNF4A DNA FP	RanGTP-Imp inh
[N-]=[N+]=NC[C@H](Cc1ccccc1)N1CCN(Cc2ccccc2)CCC1=O	.	i	4.4	.	-6.0	-4.6	0.7
Cc1ccc(S(=O)(=O)c2c(N)n(/N=C/c3ccco3)c3nc4ccccc4nc23)cc1	28%	.	.	.	.	16	2.8
COc1ccc(N2CCN(C(=O)CN(c3ccccc3)S(=O)(=O)c3ccc(OC)cc3)CC2)cc1	5%	.	2.0	0.71	.	-0.7	-3.9
COc1ccc(N)c2c1OCCC2=O	.	.	3.3	0.72	.	-2.8	-6.1
CC(C)c1ccc(/C=C/C(=O)Nc2nn[nH]n2)cc1	-12%	.	4.9	0.69	.	.	-1.9
COc1cccc(-c2cnc3c(NC=O)cc(-c4cccc(C(=O)N(C)C)c4)cn23)c1	.	i	.	.	0.4	1.8	.
COc1cccc(OC)c1OC(=O)C1CC(=O)N(c2ccc3c(c2)OCCO3)C1 (stereo not drawn)	.	i	3.2	0.69	-0.1	-13	.
O=C(Nc1ccc(Oc2cccnc2)cc1)c1ccccc1Cl	18%	i	2.3	0.72	-0.8	0.9	2.7
S=c1[nH]nc(Nc2ccc(Cl)cc2)s1	-5%	i	2.7	0.58	.	-0.5	0.2
COc1ccc(C2(CCN)CC(C)N(C)CC2C)cc1 (stereo not drawn)	4%	.	-0.1	0.73	.	1.6	3.1
COC(=O)c1ccc(NC(=O)CC2C(=O)N(c3ccc(C)cc3)C(=O)N2CC(C)C)cc1 (stereo not drawn)	26%	.	2.7	0.67	.	2.8	2.1
CCCCOc1cccc(-c2cc(C(=O)NNC(=S)NCC)c3ccccc3n2)c1	-3%	.	-1.3	0.68	.	-1.0	-2.6
COc1ccc(N(CC(=O)NCc2ccc(Cl)cc2)S(=O)(=O)c2ccccc2[N+](=O)[O-])c(OC)c1	.	i	2.4	0.76	3.0	0.6	-2.8
O=C(Nc1c2c(nn1-c1ccc(F)cc1)CS(=O)C2)C12CC3CC(CC(C3)C1)C2 (stereo not drawn)	>100µM*	.	4.4	0.68	.	-2.9	3.4
Cc1ccc(-n2c(SCC(=O)N/N=C/c3ccccc3OCC(=O)O)nc3ccccc3c2=O)cc1	1%	i	.	.	-30	-0.3	-2.4
CCOC(=O)c1cnc(SCC(=O)c2ccc(C)cc2)nc1N	-13%	.	4.4	0.77	.	3.7	-4.5
O=Cc1ccc(-c2ccc(F)cc2)o1	-3%	i	3.9	0.66	-0.7	0.5	?
O=C(c1ccc(Cl)c(Cl)c1)N1CCC(=O)N(C(COCc2cccc(C(F)(F)F)c2)Cc2ccccc2)CC1 (stereo not drawn)	?	i	1.1	0.73	.	-0.5	-0.5
CNC(C)C#Cc1ccc2c(=O)c3ccccc3oc2c1 (stereo not drawn)	.	i	-3.5	0.7	4.6	11	-3.3
CC1CN(C(=O)c2cc(S(=O)(=O)N3CCCC3)ccc2Cl)CC(C)O1 (stereo not drawn)	.	i	-1.5	0.7	0.1	-4.1	-4.5
COc1ccc(CCNC(=O)c2ccc(CS(=O)(=O)c3ccc(Br)cc3)o2)cc1OC	.	i	3.8	0.71	-7.8	-0.6	-1.0
O=C(c1cc(-c2ccccc2)n[nH]1)N1CCN(S(=O)(=O)c2ccccc2)CC1	-9%	i	2.0	0.73	1.7	1.0	?
CC1=C([N+](=O)[O-])C(c2ccccc2)NC(=O)N1 (stereo not drawn)	.	i	9.5	0.66	-24	1.9	-0.6
O=C(OCc1csc(-c2ccccc2)n1)c1cccs1	4%	.	6.9	0.77	.	-1.0	3.1
Cc1nc2ccc(NC(=O)c3ccc(Cl)c([N+](=O)[O-])c3)cc2s1	.	i	5.9	0.66	-8.2	-0.8	7.6
SMILES	Vif TR-FRET	FGF22 binding	UCH37 DUB inh	Ecoli growth	AF4-AF9 inh	HNF4A DNA FP	RanGTP-Imp inh
COc1cc(-c2noc(-c3ccccc3C(=O)NCc3ccco3)n2)cc(OC)c1OC	9%&1%	.	1.5	0.69	.	1.5	-3.7
COc1cccc(NC(=O)CNC(C)CCC(C)C)c1 (stereo not drawn)	-7%	.	3.1	0.66	.	0.3	1.2
COc1ccc(C=C2NC(=S)NC2=O)cc1	-3%	i	12	0.67	1.8	1.6	.
CN(C)S(=O)(=O)c1ccc(C(=O)OCC(=O)Nc2ccccc2OC(F)F)cc1	4%	.	5.7	0.73	.	4.5	-1.0
CCCN1CCN(CC(=O)Nc2nc3ccccc3s2)CC1	.	i	1.2	0.71	1.6	1.6	3.4
CCC1CCCCN1CCNC(=O)CNS(=O)(=O)c1ccc2nc(C)sc2c1 (stereo not drawn)	1%	.	-0.3	0.69	.	-0.9	?
CC(=O)Nc1cccc(S(N)(=O)=O)c1C	0%	i	-0.5	0.7	-9.1	5.4	-2.2
CSc1ccccc1NC(=S)N/N=C/c1cccn1Cc1cccc(C)c1	-1%	i	.	.	6.2	-5.1	-0.5
COc1cc(NC(=O)c2ccccc2F)ccc1NC(=O)c1cc2ccccc2o1	.	i	.	.	-5.9	0.6	-1.2
Cc1oc2c(c1C(=O)N1CCOCC1)C(=O)c1ccccc1C2=O	3%	i	13	0.7	1.2	3.0	4.8
CCC(=O)c1ccc(N2CCN(C(=O)c3ccccc3)CC2)c(F)c1	.	i	6.6	0.69	-2.7	1.8	-0.2
CCOc1ccnc(OCC)c1Br	.	i	3.9	0.67	-5.7	6.2	1.9
Cn1ncc2c(NNC(=O)c3ccc(Cl)cc3Cl)ncnc21	.	i	4.1	0.67	-2.4	-1.2	1.7
N#Cc1c(N)nc2c(c1-c1ccc(F)cc1)CCC2	-9%	i	-385	0.74	-3.2	-0.9	21*
COc1ccccc1OCC(=O)NN=C(Cc1ccccc1)Cc1ccccc1	5%	i	0.3	0.7	2.8	0.3	0.5
COCCOC(=O)c1[nH]c2c(c1C)C(=O)CC(c1ccco1)C2 (stereo not drawn)	?	.	-1.1	0.65	-2.3	-16	4.5
Cc1ccc(C)c(NC(=O)Cn2nc([N+](=O)[O-])c(Br)c2C)c1	-10%	i	2.6	0.69	3.1	1.9	-0.3
Cn1c(=O)c(=O)n(C)c2cc(N3CCCC3)c(NS(=O)(=O)c3ccc(F)cc3)cc21	.	i	5.5	0.67	-2.8	4.4	0.8
O=S1(=O)CCOC[C@H](c2ccccc2)N1Cc1ccccc1F	.	i	1.0	.	-2.7	6.4	0.1
CCC1=C(Nc2ccccc2)COC1=O	.	i	.	.	-2.0	-4.3	.
O=C(O)C1C2C=CC(C2)C1C(=O)NCCC1=CCCCC1 (stereo not drawn)	24%	.	2.9	0.74	.	-0.6	-3.9
CCc1ccc(NC(=O)CCNS(=O)(=O)c2cccs2)cc1	.	i	-0.8	0.7	2.7	-0.7	-0.5
CC(=O)c1cc(NC(=O)c2ccc(C)cc2)c(=O)oc1/C=C/N(C)C	-3%	.	9.8	0.73	.	96*	5.4
c1ccc(/N=C2\N=C(Nc3ccccn3)c3ccccc32)nc1	.	i	.	.	-7.8	4.7	?
CCOC(=O)C1=CCC(c2ccco2)N(S(=O)(=O)c2ccc(C)cc2)C1 (stereo not drawn)	.	i	.	.	-1.1	0.5	.
SMILES	Vif TR-FRET	FGF22 binding	UCH37 DUB inh	Ecoli growth	AF4-AF9 inh	HNF4A DNA FP	RanGTP-Imp inh
COc1cccc(NC(=O)CSCc2nc3sc(C)c(C)c3c(=O)[nH]2)c1	-14%	i	.	.	0.6	4.7	.
Cc1ccc(CN2CCCC(C(=O)N3CCCC3)C2)cc1 (stereo not drawn)	3%	i	3.6	0.69	-30	3.4	-2.8
CSCC[C@H](NC(=O)NCc1cccs1)C(=O)O	-3%	.	3.1	.	.	-0.6	-1.2
COc1ccc2[nH]c(=O)c(CN(C(C)=O)c3cccc(C)c3)cc2c1	-7%	.	-60	0.73	.	-2.5	?
COC(=O)C1=C(C)N(C)C(=O)NC1c1c(O)ccc2ccccc12 (stereo not drawn)	2%	i	5.3	0.64	-2.6	-4.0	-4.1
CCCCCCNc1ccc(C(=O)OCC)cc1	.	i	.	.	-1.9	-3.6	.
Cc1cc(C)c(C)c(S(=O)(=O)N2CCN(C(=O)c3cc(S(=O)(=O)N4CCOCC4)ccc3F)CC2)c1C	.	i	-0.4	0.7	3.7	-3.8	.
Cc1ccc(Sc2ccc(C(=O)NC(C)C)cc2[N+](=O)[O-])cc1	-5%	.	2.5	0.68	.	0.4	1.6
CCc1sc(C(=O)Nc2ccc(F)cc2C)cc1C	.	.	3.2	0.73	.	-1.9	-0.1
Cn1c2c(c(=O)n(C)c1=O)C(c1ccc(O)cc1)Nc1ccccc1O2 (stereo not drawn)	5%	.	-2.2	0.72	.	-1.6	-3.4
CC(=O)N1CCN(CC(=O)c2ccc(Br)cc2)CC1	4%	i	1.9	0.7	-3.0	4.2	2.5
Cn1c(N)c(C(=O)COC(=O)c2ccccc2C(F)(F)F)c(=O)n(C)c1=O	.	i	2.6	0.7	-0.3	0.5	.
Cc1cc(C)c(OCC(=O)NCC2CCCO2)c(C)c1 (stereo not drawn)	5%	i	3.2	0.71	0.9	-0.5	0.7
C/C(=N\NC(=O)c1nnn(-c2nonc2N)c1CSc1ccc(Cl)cc1)c1cccnc1	-2%	i	.	.	-0.1	4.2	2.4
CC(C)N(CC(N)=O)c1ncnc2sc(-c3ccccc3)cc12	.	i	-23	0.65	-1.5	6.2	-3.8
CC(C)(C)c1csc(N/N=C/c2ccc(O)cc2)n1	.	i	.	.	7.9	-1.1	7.5
CC(=O)Nc1ccc(NC(=O)C2c3ccccc3Oc3ccccc32)cc1	15%	i	1.2	0.68	-2.7	0.5	?
COc1cc(C2c3cc4c(cc3C(OC3OC5COC(c6cccs6)OC5C(O)C3O)C3COC(=O)C23)OCO4)cc(OC)c1O (stereo not drawn)	2%	i	.	.	1.8	-0.1	2.6
CCN(CC(=O)NC1CCS(=O)(=O)C1)S(=O)(=O)c1ccc(Cl)cc1C(F)(F)F (stereo not drawn)	-3%	i	-2.2	0.69	-1.7	-0.2	-0.8
CC(C)OC(=O)c1ccc(NC(=O)Cn2c(-c3nonc3N)nc3ccccc32)cc1	4%	.	2.1	0.71	.	-0.9	0.0
CC1CCN(c2ccc(-c3ccc(NC(=O)C(F)(F)F)cc3)nn2)CC1	1%	.	1.8	0.67	.	0.8	1.4
CCN1CCN(C(=O)c2ccc(CN(c3ccccc3)S(=O)(=O)c3ccccc3)cc2)CC1	4%	i	1.8	0.71	3.0	-1.3	?

Already shown: entries from further up.
SMILES	Vif TR-FRET	FGF22 binding	UCH37 DUB inh	Ecoli growth	AF4-AF9 inh	HNF4A DNA FP	RanGTP-Imp inh
CCC1CCCCN1CCNC(=O)CNS(=O)(=O)c1ccc2nc(C)sc2c1 (stereo not drawn)	1%	.	-0.3	0.69	.	-0.9	?
CC(=O)Nc1cccc(S(N)(=O)=O)c1C	0%	i	-0.5	0.7	-9.1	5.4	-2.2
CSc1ccccc1NC(=S)N/N=C/c1cccn1Cc1cccc(C)c1	-1%	i	.	.	6.2	-5.1	-0.5
COc1cc(NC(=O)c2ccccc2F)ccc1NC(=O)c1cc2ccccc2o1	.	i	.	.	-5.9	0.6	-1.2

Screening data from PubChem BioAssay.

Some of the compounds tested (hit frequency here may not be typical).
